Assay outcomes (PubChem BioAssay)
LT uptake inh = inhibitors of anthrax lethal toxin internalization; Cells, anthrax lethal toxin internalization, FRET ratio (460/530); Potency, µM (top dose mostly 40 µM), for inactives: top-dose activity change, negative = inhibition, hits mostly inhibitors; 0.67% of 70,000 active; AID 912; active = well fitted falling ratio curve with the 530 nm signal flat; inconclusive = other ratio curves, or a change in one channel alone; inactive = flat curves in the ratio and both channels; the % refers to the ratio; also: % is scaled to controls: 0 for no effect and ±100 for the full control effect; nearly all actives have a fitted effect of over 50% in size; tested in ME-180 cells; beta-lactamase reporter
Prx2 Sm inh = inhibitors of Schistosoma mansoni peroxiredoxin 2 | S. mansoni Prx2 activity coupled to TGR/GSH (TGR is thioredoxin glutathione reductase), NADPH fluorescence loss, qHTS; some inactives read as strong as hits | Potency, µM | 0.07% of 65,000 active | AID 448; active means full or partial inhibition curve with a strong effect at the top dose; inconclusive means weaker partial or single-point curve; inactive means no accepted curve; also: series up to 57 µM; many of its hits are not listed in these tables
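qHTS, coupled TGR/Prx2 format; 15 min compound preincubation at RT; reaction started with H2O2 (2.5 mM aliquot); kinetic NADPH fluorescence decrease, ex 365/em 450 nm.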
* marks the source's active call; other numbers are inactive results; i = inactive; ? = inconclusive; nt = no result given; [ ] = another dose, or the depositor's remark. Potency is read from the fitted curve at half-maximal effect.

The opening 2 compounds as a preview:
nr | Structure | Prx2 Sm inh | LT uptake inh
1 | O=c1c(-c2ccccc2)nc2cnc(Oc3ccccc3)nc2n1C1CC1 | >57 | ?
2 | O=C(c1cccs1)N(CC1CCCO1)c1nc(-c2ccccc2)cs1 (configuration not stated) | >57 | -27%

All compounds of this part (from the top)
nr | Structure | Prx2 Sm inh | LT uptake inh
1 | O=c1c(-c2ccccc2)nc2cnc(Oc3ccccc3)nc2n1C1CC1 | >57 | ?
2 | O=C(c1cccs1)N(CC1CCCO1)c1nc(-c2ccccc2)cs1 (configuration not stated) | >57 | -27%
3 | C=CCNc1nnc(SCC(=O)N2CCCCC2)c2ccccc12 | >57 | -16%
4 | Cn1nnc2cc(C(=O)NC(C)(C)C)ccc21 | >57 | -3%
5 | CCOC(=O)CSc1nnc(-c2cccc(Br)c2)o1 | nt | 15%
6 | O=C(Cc1cccs1)NCc1ccccc1 | >57 | -12%
7 | O=C(CN1C(=O)c2ccccc2S1(=O)=O)NC1CCCC1 | >57 | 9%
8 | CCC(=O)Nc1ccc2nc(C)n(CC(=O)Nc3ccccc3)c(=O)c2c1 | >57 | -2%
9 | O=C(c1ccncc1)N1CCC2(CC1)CN(C(c1ccccc1)c1ccccc1)C2 | >57 | 5%
10 | O=C1CC(c2ccccc2)CC(O)=C1C=NCCN1CCN(C(=O)Cc2ccccc2)CC1 (configuration not stated) | nt | ?
11 | CCOC(=O)c1ccccc1NC(=O)CN(c1ccccc1OC)S(C)(=O)=O | nt | -12%
12 | CC1=C(C#N)C(NC(=O)c2ccco2)(C(F)(F)F)C(=O)N1 (configuration not stated) | >57 | -8%
13 | O=C(CN1CCC2(CC1)OCCO2)c1c[nH]c2ccccc12 | >57 | nt
14 | NC(=NC(=O)c1ccccc1)C1=C(O)CCC1=O | >57 | -1%
15 | O=C(Nc1sc2c(c1C(=O)NC1CC1)CCCCCC2)c1ccco1 | >57 | nt
16 | COc1ccccc1CN1CC[C@@]2(CCCN(C(=O)Oc3ccccc3)C2)C1 | >57 | -12%
17 | Cc1nc(NCc2ccccc2)c2nc(-c3ccccc3)n(CCCN3CCCCC3C)c2n1 (configuration not stated) | nt | ?
18 | CC(O)CNc1nc2ccccc2n1-c1ncnc2sc3c(c12)CCC3 (configuration not stated) | >57 | ?
19 | CCOc1ccc(S(=O)(=O)N(CC(=O)Nc2cc(C)on2)Cc2ccccc2Cl)cc1 | >57 | -22%
20 | O=P(CO)(Cc1ccccc1)Cc1ccccc1 | >57 | -4%
21 | CCN(CCO)C(=O)CC(c1ccccc1)c1cc(Br)ccc1O (configuration not stated) | >57 | 0%
22 | Cc1ccc(CN2C(=O)/C(=C3\SC(N4CCOCC4)=NC3=O)c3cc(Br)ccc32)cc1 | nt | -19%
23 | O=C(Cn1cnc2c(nnn2-c2ccccc2)c1=O)NCc1ccco1 | >57 | 4%
24 | CCOC(=O)c1sc(-c2ccccc2)cc1NC(=O)CSc1nnnn1C | >57 | 7%
25 | CSc1cccc(NC(=O)c2nnn(Cc3ccccc3)c2N)c1 | >57 | ?
26 | O=C(CSc1nc2c([nH]c3ccccc32)c(=O)n1-c1ccccc1)N1CCOCC1 | >57 | 9%
27 | COc1ccc(-c2nc3cnc(N4CCOCC4)nc3n(C)c2=O)cc1 | >57 | ?
28 | COc1cccc(-c2cncnc2NCCc2cnc[nH]2)c1 | >57 | -3%
29 | COc1ccccc1N1CCN(C(=O)c2ccc(N3CCCC3=O)cc2)CC1 | >57 | -5%
30 | CCN1C(=O)[C@H]2[C@H]3[C@H](O)[C@H](O)C/C(=N/OCC(C)C)[C@H]3CC[C@@H]2C1=O | nt | -7%[8 µM]
31 | C[C@H]1[C@@H](O)[C@@H](C)/C=C\C=CCC\C=C/C=C\C=C/C=C[C@@H](O[C@H]2O[C@@H](C)[C@@H](O)[C@@H](N)[C@@H]2O)C[C@@H]2O[C@@](O)(C[C@@H](O)[C@H]2C(=O)O)C[C@@H](O)[C@@H](O)CC[C@@H](O)C[C@@H](O)C[C@@H](O)CC(=O)O[C@H]1C | >57 | 9%[3.58 µM]
32 | CCOC(=O)N1CCC(NS(=O)(=O)c2cc3c(cc2C)NC(=O)CO3)CC1 | nt | 5%
33 | CCn1c(-c2cccc(Br)c2)n[nH]c1=S | >57 | 2%
34 | COc1ccc(F)cc1S(=O)(=O)NC1CCCCCC1 | >57 | -5%
35 | Cc1ccc2[nH]c(=O)c(CN(CCCO)S(=O)(=O)c3cccc4nsnc34)cc2c1 | >57 | -6%
36 | O=C(NCCN1CCOCC1)Nc1ccc(Cl)cc1 | >57 | ?
37 | O=C(COc1ccc(S(=O)(=O)N2CCCC2)cc1Cl)NCc1ccco1 | >57 | ?
38 | COCCNc1ncnc2ccc(-c3ccccc3CN(C)C)cc12 | >57 | ?
39 | O=C1c2ccccc2C(=O)N1CCCSc1ccccc1 | >57 | -13%[8 µM]
40 | N#CC(C(=O)NC1CCCCC1)c1nc2ccccc2nc1N1CCCCC1 (configuration not stated) | >57 | ?

Screen by screen, from the results shown.
LT uptake inh for nos. 22 to 32, in order: -19%, 4%, 7%, ?, 9%, ?, -3%, -5%, -7%[8 µM], 9%[3.58 µM], 5%

Whole records as entered above:
Entry for CCN(CCO)C(=O)CC(c1ccccc1)c1cc(Br)ccc1O (configuration not stated) → Prx2 Sm inh: >57; LT uptake inh: 0%
Entry for O=C(Nc1sc2c(c1C(=O)NC1CC1)CCCCCC2)c1ccco1 → Prx2 Sm inh: >57; LT uptake inh: nt

Additional structures:
nr | Structure | Prx2 Sm inh | LT uptake inh
41 | O=[N+]([O-])C(Br)Br | nt | ?
42 | Cc1ccnc(N2CCN(C(=O)CSc3nc4ccccc4nc3N3CCCCC3)CC2)c1 | >57 | ?
43 | N#Cc1c(N)n(C2CCCCC2)c2nc3ccccc3nc12 | >57 | 0%
44 | Cc1ccc(S(=O)(=O)N2CCCN(S(=O)(=O)C3CCS(=O)(=O)C3)CC2)cc1 (configuration not stated) | >57 | 12%
45 | C=CCn1c(Cc2cccs2)nnc1SCC(=O)c1ccc(F)cc1 | >57 | ?
46 | CCCC[C@@H]1C[C@H]1C(NC(=O)c1cccnc1)c1ccc(Cl)cc1 (some centres not stated) | i | ?
47 | CCOC(=O)N1CCC(NS(=O)(=O)c2ccc3c(c2)oc(=O)n3C)CC1 | >57 | -9%
48 | COC(=O)c1cccc(CSc2nnc(-c3ccco3)n2-c2ccccc2)c1 | >57 | -12%
49 | O=C(N/N=C1/C[C@@H](O)[C@@H](O)[C@@H]2[C@@H]3C(=O)N(C4CCCCC4)C(=O)[C@H]3CC[C@@H]12)OCc1ccccc1 | nt | 7%[8 µM]
50 | CCC1(C)Nc2ccccc2C(=O)N1O (configuration not stated) | >57 | -1%
51 | COc1ccc(OC)c(C2=Nn3c(nnc3-c3cc(OC)c(OC)c(OC)c3)SC2)c1 | >57 | -12%
52 | N#Cc1c(/N=C/N2CCOCC2)sc2c1CCCCC2 | >57 | -7%
53 | Cc1ccc(C)c2[nH]c(=O)c(CCNC(=O)c3ccc(S(=O)(=O)N(C)C)cc3)cc12 | >57 | -1%
54 | CC(CCc1ccccc1)NC(=O)c1cccnc1 (configuration not stated) | >57 | -1%
55 | COC(=O)c1ccc(COc2cc(C)cc3oc(=O)c4c(c23)CCCC4)o1 | >57 | 0%
56 | Cc1cc(N)n2ncc(-c3ccccc3)c2n1 | >57 | -10%
57 | CCC1CN2CCC1CC2C(Oc1cc2ccccc2c2ccccc12)c1ccnc2ccc(O)cc12 (configuration not stated) | nt | -5%[8 µM]
58 | Cc1ccc(N2C(=O)C3C(C2=O)C2C=CC3C23CC3)cc1 (configuration not stated) | nt | -10%
59 | CC(c1nnc(SCC(=O)Nc2sccc2C#N)n1-c1ccc(Cl)cc1)N(C)C (configuration not stated) | >57 | -5%
60 | O=C(Nc1ccc(Cl)cc1)N1CCSCC1 | >57 | 9%
61 | COc1ccc(-c2nc(C#N)c(NCCc3ccccc3)o2)cc1 | >57 | 4%
62 | O=C(c1cc2ccccc2oc1=O)N1CCCN(C(=O)c2cc3ccccc3oc2=O)CC1 | >57 | 8%
63 | COc1ccc(CCn2c(N3CCN(Cc4ccccc4)CC3)nc3c2c(=O)[nH]c(=O)n3C)cc1 | >57 | -5%
64 | COc1ccc2[nH]cc(CCNc3cc(-c4ccccc4C(F)(F)F)ncn3)c2c1 | >57 | -6%
65 | COc1ccc(OC)c(-n2nnnc2SCC(=O)Nc2ccc(C(=O)N3CCCCC3)cc2)c1 | >57 | -7%
66 | CSC1=NCCN1C(=O)C(C)Oc1ccccc1 (configuration not stated) | >57 | -1%
67 | Cc1ccc(C(=O)CSc2ncn[nH]2)cc1 | >57 | 12%
68 | O=C1CSC(c2cn(-c3ccccc3)nc2-c2cccs2)N1CC1CCCO1 (configuration not stated) | >57 | 11%
69 | Cc1nc(N)sc1-c1nnc(SCC(=O)Nc2nccs2)n1C | >57 | 14%
70 | O=C(O)C[C@H](Cc1ccc2c(c1)OCO2)C(=O)O | >57 | -3%[8 µM]
71 | Cc1ccc2oc(-c3ccc(NC(=O)c4ccc5c(c4)OCO5)cc3)nc2c1 | >57 | -7%
72 | COc1ccc(S(=O)(=O)Nc2nnc(C(C)C)s2)cc1 | >57 | 5%
73 | CCOc1ccc(N(CC(=O)NC2CCCC(C)C2C)S(=O)(=O)c2c(C)noc2C)cc1 (configuration not stated) | >57 | 1%
74 | O=C(NCN1CCN(c2ccccn2)CC1)c1cnccn1 | >57 | 6%
75 | CCOC(=O)COc1ccc2cc(C(=O)OCC)c(=O)oc2c1 | nt | 17%
76 | CCN(CC)S(=O)(=O)c1ccc(OCC(=O)NCc2ccccc2)cc1 | >57 | 7%
77 | O=C(CN1C(=O)C2C3C=CC(C3)C2C1=O)Nc1ccc2c(c1)OCCO2 (configuration not stated) | >57 | 0%
78 | CCOC(=O)CNC(=O)CN1C(=O)CCS(=O)(=O)c2ccccc21 | >57 | -1%
79 | N#CCCn1c(=O)c(-c2cccs2)nc2cnc(Oc3cccc(Cl)c3)nc21 | >57 | ?
80 | COc1ccc2c(c1)c(=O)oc1cc(OCC(=O)N3CCCC(C)C3)ccc12 (configuration not stated) | >57 | ?
81 | COc1ccc(-c2ccc(=O)n(CC(=O)NCc3ccco3)n2)cc1 | >57 | -9%
82 | COc1cc(NC(=O)c2ccccc2Cl)c(OC)cc1NC(=O)CN1CCOCC1 | >57 | -5%
83 | COc1cc(CNC2CCCC2)cc(OC)c1 | nt | 6%
84 | CC1=C(C(=O)NCc2ccccc2)C(c2ccc(C)o2)n2ncnc2N1 (configuration not stated) | >57 | -6%
85 | COc1ccc(S(=O)(=O)NCc2csc(C)n2)cc1 | >57 | 0%
86 | Cn1nnnc1NCc1c(F)cccc1Cl | >57 | -7%
87 | NC(=O)C1CCN(c2nc(C3CC3)nc3c2nnn3Cc2ccccc2Cl)CC1 | >57 | -14%
88 | CCCn1c(SCC(=O)NCC2CCCO2)nc2c1c(=O)n(C)c(=O)n2C (configuration not stated) | >57 | -5%
89 | CC(C)(CN)SCc1ccccc1 | >57 | -10%[8 µM]
90 | CCN(CC)c1ccc(NC(=O)c2ccco2)cc1 | >57 | ?

(more compounds)
nr | Structure | Prx2 Sm inh | LT uptake inh
91 | COc1cccc2c(=O)c3c(cnn3C)n(C)c12 | >57 | ?
92 | O=C(c1cc2sccc2n1Cc1ccccc1)N1CCc2ccccc21 | >57 | ?
93 | Cc1cc(C)n2nc(SCC(=O)N(C)Cc3ccccc3)nc2n1 | >57 | -12%
94 | CCN1CC2=C(OC(N)=C(C#N)C2c2cccs2)/C(=C/c2cccs2)C1 (configuration not stated) | >57 | -4%
95 | COC(=O)[C@@]1(Cc2ccc(OC)cc2)[C@H]2c3cc(C(=O)N(C)C)n(Cc4ccc(C(F)(F)F)nc4)c3C[C@H]2CN1C(=O)c1ccccc1 | >57 | ?
96 | COc1ccccc1N1CCN(C(=O)c2cc(-c3ccc4c(c3)OCO4)on2)CC1 | >57 | -3%
97 | CC(C)(C)C(=O)c1sc(Nc2ccccc2)nc1N | >57 | -26%
98 | O=C(Nc1ccc(C(=O)Nc2ccc(C(=O)Nc3ccc(S(=O)(=O)O)c4cc(S(=O)(=O)O)cc(S(=O)(=O)O)c34)cc2)cc1)Nc1ccc(C(=O)Nc2ccc(C(=O)Nc3ccc(S(=O)(=O)O)c4cc(S(=O)(=O)O)cc(S(=O)(=O)O)c34)cc2)cc1 | >57 | ?
99 | CCCCCCc1nc2c(=O)[nH]c3ccccc3c2o1 | >57 | -8%
100 | O=C(c1cc(=O)[nH]c2ccc(Br)cc12)N1CCC2(CC1)OCCO2 | >57 | -1%
101 | CS(=O)(=O)Nc1ccc(C(=O)Nc2ccccc2C(=O)N2CCCC2)cc1 | >57 | 12%
102 | COc1ccc(OC)c(NC(=O)C2CCN(S(=O)(=O)c3c(C)noc3C)CC2)c1 | >57 | -10%
103 | COCCNC(=O)CSc1nc2cc(OC)c(OC)cc2c(=O)n1Cc1ccco1 | >57 | 6%
104 | CCOC(=O)C(Cc1ccccc1)NS(=O)(=O)c1ccc(NC(C)=O)cc1 (configuration not stated) | >57 | 8%
105 | CCC(=O)N1CCc2cc(Br)cc(S(=O)(=O)NCCN3CCCCC3CC)c21 (configuration not stated) | >57 | -26%
106 | CCNc1nc(SCC(=O)OC)nc(N2CCOCC2)n1 | >57 | 9%
107 | O=C(C1CCCN1S(=O)(=O)c1ccc(Cl)c(Cl)c1)N1CCCCC1 (configuration not stated) | >57 | 14%
108 | CS(=O)(=O)N(CC(=O)NCCSCc1cccc(Cl)c1)c1ccc2c(c1)OCO2 | >57 | -17%
109 | Cc1cc(C2C(C#N)=C(N)SC(N)=C2C#N)c(C)s1 | >57 | 3%

These rows are one share of the data, so the mix of outcomes need not match the whole.
